Screening data deposited in PubChem by several laboratories.
Sa ugtP lethal: compounds lethal to S. aureus RN4220 ugtP deletion mutant | OD600 growth, 16 h; some inactives read as strong as hits | growth inhibition, % (concentration not given with the values) | 0.54% of 330,000 active;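 active = z-score under -3 and OD600 up to 0.15 on both plates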;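 note: plate controls were untreated wells for no effect and antibiotic for full effect; wells of about 80 µL received 100 nL stock; the first replicate is given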
Mtb hypoxia inh: inhibitors of hypoxia-regulated fluorescent reporter in Mycobacterium tuberculosis; fluorescence inhibition, % (concentration not given with the values); 0.1% of 300,000 active; M. tuberculosis hypoxia-regulated fluorescent reporter, fluorescence;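 active = 35 to 45% if threefold the growth effect, above 45% if 1.5-fold the growth effect; inactive = the rest, general growth blockers included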;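 note: wells of about 50 µL received 100 nL stock; 0% = vehicle wells and 100% = reference inhibitor wells; whole bacteria with a GFP reporter of the hypoxia response; strong numbers were not always called active; many hits fall short of the cut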
PrP 5UTR inh: inhibition of PrP 5' UTR reporter expression; inhibition, % (no concentration beside the values); cell-based PrP 5' UTR mRNA reporter, plate reader; AID 488862; 0.35% of 340,000 active;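 active = every replicate at 50% or more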;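 note: 0 = median of the neutral control wells; tested in H4 reporter cells; numbers are from one replicate; inactives centre near -14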
BJeLR lethal: BJeLR cell viability loss; BJeLR (HRASV12) viability, CellTiter-Glo ATP luminescence, 48 h; reference of the scale not given here; inhibition, % (concentration not given with the values); 0.17% of 300,000 active; AID 1554;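 active = replicate mean above 50%; inconclusive = above 50% but judged a plate artefact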;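 note: 50 nL library stock added to about 25 µL; numbers are from one replicate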
Bead autofluor: flagged as autofluorescent in microsphere protease counterscreen. compound autofluorescence counterscreen, microsphere flow cytometry; stronger effect = higher value. fluorescence intensity (concentration not given with the values). 3.1% of 360,000 active. AID 624483;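 active = at least 3 SD above the mean of all compounds, about 16000 in these data; inconclusive = too few beads counted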;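 note: 100 nL of 1 mM stock went into each well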
Sa RN4220 lethal: S. aureus RN4220 growth inhibition | OD600, 16 h | 0.33% of 330,000 active | inhibition, % (test concentration not listed) | AID 1259311;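 active = z-score of -3 or lower and OD600 up to 0.18 on both plates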;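 note: plate controls were untreated cells for no effect and reference antibiotic for full effect; stock transfer was 100 nL into about 80 µL; one replicate is shown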
Mtb hypoxia inh growth: also measured in Mtb hypoxia inh; calls as there; growth inhibition, %; measured here: M. tuberculosis growth (absorbance);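 0% = vehicle and 100% = reference antibiotic; read after six days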
Starred values were filed as active, the others as inactive; ? = inconclusive; · = not tested or not shown.

SMILES | Sa ugtP lethal | Mtb hypoxia inh | Mtb hypoxia inh growth | PrP 5UTR inh | BJeLR lethal | Bead autofluor | Sa RN4220 lethal
C=CCn1c(C)cc(C(=O)CSc2nc(N)cc(N)n2)c1C | -6 | -2 | 7 | -27 | -3 | 4388 | -2.8
O=C(NCCCCCCNC(=O)c1cncc(O)c1)c1cncc(O)c1 | 9 | 5 | 11 | -11 | -2 | 3650 | 1.6
COc1ccc(OC)c(C(=O)NC(CC(N)=O)c2ccc(N3CCN(c4ccccc4)CC3)c([N+](=O)[O-])c2)c1 (centres undefined) | 11 | 22 | 7 | -8 | -1 | 3742 | 11
O=C(c1cccc(S(=O)(=O)NCc2ccccc2)c1)N1CCN(c2cccc(C(F)(F)F)c2)CC1 | -7 | 1 | -2 | -25 | 9 | 5348 | -2.5
C=CCOc1nc2c(c(=O)n(C)c(=O)n2C)n1Cc1c(Cl)cccc1Cl | 1 | 18 | 9 | -6 | -2 | 3207 | -8.2
COc1cc(Cl)c(C)cc1NC(=O)COc1ccc(C)nc1[N+](=O)[O-] | 2 | 0 | -4 | -81 | · | 5477 | 3.8
CCC(C)n1c(O)c(C=NCc2cccnc2)c(=O)[nH]c1=S (centres undefined) | 7 | 4 | 0 | -19 | -3 | · | 1.9
Cc1nn(CC(=O)NNC(=S)NCC2CCCO2)c(C)c1Br (centres undefined) | 3 | 4 | 6 | 2 | -9 | 5826 | 1.8
COC(=O)c1ccc(CNC(=O)c2ccc3oc(C(C)C)nc3c2)cc1 | 7 | 12 | 11 | -19 | 4 | 6316 | -0.4
O=C(Cc1c(F)cccc1Cl)NC1=NCCS1 | 3 | 4 | 6 | -5 | -4 | 2448 | 3.6
O=C(Nc1ccccc1)Nc1nc(-c2ccccc2)cs1 | 2 | -4 | 5 | -52 | 1 | ? | -2.3
CCOC(=O)CC1c2cc(F)ccc2S(=O)(=O)N1C1CCCCC1 (centres undefined) | -5 | 2 | -3 | · | · | · | 0.2
O=Cc1cccn1-c1cccc([N+](=O)[O-])c1 | 7 | -1 | 5 | 2 | -5 | 3836 | 3.8
CC(/C=C/C=C/c1ccccc1)=NNC(=O)c1ccc2c(c1)OCCO2 | 4 | -3 | 5 | · | · | · | 7.0
CCC(NC(=O)NNC(=O)c1ccncc1)(C(F)(F)F)C(F)(F)F | 1 | 6 | 13 | -1 | 12 | 4219 | 5.6
CCOc1cc(/C=N/O)cc(Br)c1OCc1ccc(Cl)cc1 | · | · | · | -14 | -2 | 3190 | ·
Cc1cc(Nc2ccccc2)c2c([N+](=O)[O-])ccc(C)c2n1 | 52 | 11 | -2 | -13 | -1 | 2643 | 17
O=C(Cc1cccc(NC(=O)C2CCN(C(=O)c3ccccc3)CC2)c1)Nc1cccc(C(=O)N2CCCCC2)c1 | -3 | -2 | 3 | -15 | · | 3397 | 5.6
CN(C(=O)c1ccc(OC2CCN(CCc3ccccc3)CC2)cc1)C1CCCCC1 | 16 | -1 | 9 | -17 | 8 | 4438 | 2.3
O=c1ccc2cc(O[C@@H]3O[C@@H](CO)[C@H](O)[C@@H](O)[C@@H]3O)c(O)cc2o1 | 7 | 5 | 9 | -31 | -6 | 3906 | -2.0

Single entries from the results shown:
Cc1cc(Nc2ccccc2)c2c([N+](=O)[O-])ccc(C)c2n1 in Mtb hypoxia inh → 11
CCOc1cc(/C=N/O)cc(Br)c1OCc1ccc(Cl)cc1 in Bead autofluor → 3190
O=Cc1cccn1-c1cccc([N+](=O)[O-])c1 in Mtb hypoxia inh → -1

The main list resumes; the 5 compounds before the break are reprinted first.
SMILES | Sa ugtP lethal | Mtb hypoxia inh | Mtb hypoxia inh growth | PrP 5UTR inh | BJeLR lethal | Bead autofluor | Sa RN4220 lethal
CCOc1cc(/C=N/O)cc(Br)c1OCc1ccc(Cl)cc1 | · | · | · | -14 | -2 | 3190 | ·
Cc1cc(Nc2ccccc2)c2c([N+](=O)[O-])ccc(C)c2n1 | 52 | 11 | -2 | -13 | -1 | 2643 | 17
O=C(Cc1cccc(NC(=O)C2CCN(C(=O)c3ccccc3)CC2)c1)Nc1cccc(C(=O)N2CCCCC2)c1 | -3 | -2 | 3 | -15 | · | 3397 | 5.6
CN(C(=O)c1ccc(OC2CCN(CCc3ccccc3)CC2)cc1)C1CCCCC1 | 16 | -1 | 9 | -17 | 8 | 4438 | 2.3
O=c1ccc2cc(O[C@@H]3O[C@@H](CO)[C@H](O)[C@@H](O)[C@@H]3O)c(O)cc2o1 | 7 | 5 | 9 | -31 | -6 | 3906 | -2.0
CCC(=O)Nc1cccc(-n2nnnc2SCC(=O)N2CCCCC2)c1 | 5 | -13 | 4 | -7 | -2 | 2425 | -1.0
O=C(CN1CCCCCC1)Nc1cccc(NC(=O)CN2CCCCCC2)c1 | 8 | 10 | 4 | -5 | 2 | · | 3.1
O=C(CC1CC=CCC(NC(=O)OCC2c3ccccc3-c3ccccc32)C(=O)OCC2CCCN2C1=O)NCCO (centres undefined) | -2 | 10 | 10 | · | · | · | 2.7
CC(C)C(NC(=O)c1ccc(F)cc1)C(=O)NC1(C)CCS(=O)(=O)C1 (centres undefined) | 5 | 5 | 7 | -9 | · | 6091 | 3.6
CCCCNC(=O)c1sc(=S)n2c1[nH]c(=O)c1ccc(C(=O)NCCc3ccc(OC)c(OC)c3)cc12 | 0 | -7 | -4 | 0 | 7 | 4188 | 6.8
CCOC(=O)C1=C(CC)OC(N)=C(C#N)C1c1ccc(OC)c(OC)c1OC (centres undefined) | -1 | 0 | -2 | 13 | 4 | 4218 | 2.2
Cc1cccc(/C=C/c2onc(C)c2[N+](=O)[O-])n1 | 0 | 21 | 22 | · | 8 | · | 19
CCC(=O)c1ccc(Oc2ccc(C(=O)c3ccc(C)cc3)cc2[N+](=O)[O-])cc1 | 1 | 8 | 5 | -24 | 12 | 2502 | 4.1
O=S(=O)(NCC1(N2CCOCC2)CCCCC1)c1ccc(Cl)cc1C(F)(F)F | -7 | 6 | -1 | -20 | 12 | 5097 | 4.4
CN(CC(=O)Nc1c(Cl)cccc1Cl)C(=O)C1=COCCO1 | 6 | 2 | -1 | -8 | -1 | 5816 | -2.0
Nc1nc(N2CCCCC2)nc(N(c2ccccc2)c2ccccc2)n1 | 11 | 3 | 4 | -9 | 2 | 5612 | 0.7
Cc1cc(=O)[nH]c(N2CCN(C(c3ccccc3)c3ccccc3)CC2)n1 | 10 | · | · | 3 | -3 | 5380 | -1.2
Cc1cc(C(=O)OCC(=O)N2CCCCCC2)ccc1[N+](=O)[O-] | 5 | 5 | 1 | -8 | · | 3952 | 1.7
N=c1n(Cc2ccccc2)c2ccccc2n1CC(O)COc1ccc(Cl)cc1Cl (centres undefined) | -9 | 19 | 22 | -18 | · | 4741 | 31
CCOC(=O)N1CCC(N(CCN(C)C)C(=S)Nc2ccccc2OC)CC1 | 5 | 13 | 1 | -1 | -5 | 4706 | 6.7
O=C(NCCc1ccc(F)cc1)c1ccc2nccnc2c1 | 1 | 2 | 5 | -47 | · | 5415 | 4.7
COc1cccc(N(C(=O)c2cccs2)c2nc3ccccc3s2)c1 | 2 | 11 | 8 | -44 | 3 | 3300 | 7.5
O=C(Cn1c(=O)oc2ccc(Cl)cc21)NC1CCCCC1 | 3 | 8 | 7 | -15 | 8 | 5181 | 0.4
O=C(Nc1ccc(/C=C/c2nc3ccccc3o2)cc1)c1ccc(F)cc1 | -12 | 3 | 11 | -40 | 2 | 3366 | -22
CSCC[C@H](NC(=O)[C@@H]1Cc2ccccc2CN1)C(=O)NC(C)c1ccccc1 (some centres undefined) | 10 | 13 | 4 | -10 | 5 | 5491 | 6.1
CN1CCOCCOCCN(C)C1=O | 7 | 16 | 12 | -12 | -1 | 4181 | 2.6
Cc1ccc(C)c(-c2csc(-c3cccnc3)n2)c1 | -10 | -6 | 11 | -15 | -4 | 4125 | -1.0
O=C(Cc1cccc(C(F)(F)F)c1)Nc1cccc(S(=O)(=O)N2CCCC2)c1 | -3 | 4 | 4 | -9 | 2 | 5737 | -0.5
CCOc1cc(C(N)=O)cc(Br)c1OCC | 20 | 14 | 15 | -6 | 5 | 8157 | 4.8
CCCOc1ccc2ccccc2c1/C=N/n1c(C)nnc1-n1nc(C)cc1C | · | · | · | -24 | 28 | 2869 | ·
CS(=O)(=O)N(CC(=O)NN=Cc1ccc(OCC(=O)N2CCOCC2)cc1)c1ccccc1Cl | 2 | 17 | 2 | · | · | · | 5.7
CO/N=C(\Cn1ncc(N2CCCC2)c(Cl)c1=O)c1ccc(Cl)cc1 | · | · | · | -3 | -6 | 2595 | ·
COc1cc(Cl)cc(/C=N/NC(N)=O)c1O | · | · | · | -21 | 10 | 4753 | ·
O=C(Cn1c(=O)sc2ccccc21)Nc1ccccc1 | 6 | 11 | 3 | -37 | 11 | 3221 | 3.2
O=C(Nc1ccc(Oc2ccc(C(F)(F)F)cn2)c(Cl)c1)C1CC1 | -6 | 13 | 4 | -15 | 4 | 3575 | -3.0
COCc1[nH]nc2c1C(c1ccc(OC)cc1)C(C#N)=C(N)O2 (centres undefined) | 5 | -4 | 1 | -14 | 13 | 3226 | 12
O=C(NCCCn1ccnc1)c1cc(C(=O)C2CC2)c[nH]1 | -5 | -4 | 13 | -10 | -6 | 9109 | 5.0
CCOC(=O)N/N=C/c1ccc(N2CCOCC2)s1 | · | · | · | -31 | -5 | 1957 | ·
Cc1cccc(C)c1N(CC(=O)N1CCCC1)S(C)(=O)=O | 11 | 12 | 4 | -24 | -4 | 4076 | 4.6
Cc1cc(C)cc(S(=O)(=O)c2cnc3ccccc3n2)c1 | -3 | 10 | 8 | -10 | -9 | 4256 | 10
C=CCn1c(SCc2nc(N)nc(N(C)C)n2)nnc1-c1cccnc1 | 2 | · | · | 6 | -2 | 2009 | 2.0
CCOc1ccc(S(=O)(=O)N(CC)CC(=O)NC2CC2)cc1 | 9 | 10 | 9 | -7 | 5 | 4772 | 1.7
Cc1ccc(NCCC(=O)c2ccc(Br)cc2)cc1 | 10 | -2 | 0 | -14 | 0 | 11510 | 5.4
O=C(NC(Cc1ccccc1)c1ccc2c(c1)OCCCO2)c1ccccc1F (centres undefined) | 7 | -3 | 5 | -19 | -3 | 10806 | 6.8
Cc1cccc(NS(=O)(=O)c2ccc(C)c(C(=O)NCC(c3ccco3)N3CCCCC3)c2)c1 (centres undefined) | 2 | 4 | 9 | -17 | · | · | 3.6

Brought forward from above: four compounds; new compounds follow.
SMILES | Sa ugtP lethal | Mtb hypoxia inh | Mtb hypoxia inh growth | PrP 5UTR inh | BJeLR lethal | Bead autofluor | Sa RN4220 lethal
CCOc1ccc(S(=O)(=O)N(CC)CC(=O)NC2CC2)cc1 | 9 | 10 | 9 | -7 | 5 | 4772 | 1.7
Cc1ccc(NCCC(=O)c2ccc(Br)cc2)cc1 | 10 | -2 | 0 | -14 | 0 | 11510 | 5.4
O=C(NC(Cc1ccccc1)c1ccc2c(c1)OCCCO2)c1ccccc1F (centres undefined) | 7 | -3 | 5 | -19 | -3 | 10806 | 6.8
Cc1cccc(NS(=O)(=O)c2ccc(C)c(C(=O)NCC(c3ccco3)N3CCCCC3)c2)c1 (centres undefined) | 2 | 4 | 9 | -17 | · | · | 3.6
CCn1cc(C(=O)NCCCOC(C)C)c(=O)c2cc(S(=O)(=O)N3CCOCC3)ccc21 | -2 | 1 | 14 | -4 | -7 | 4278 | 0.4
CC(C)NC(=O)Nc1ccc2c(c1)C(=O)N(C(C)CO)CC(C)C(CN(C)S(=O)(=O)c1ccc(F)cc1)O2 (centres undefined) | 2 | 15 | 9 | · | · | · | 5.0
CCOc1ccc(S(=O)(=O)Nc2ccccn2)c2ccccc12 | 8 | 19 | 12 | -8 | 2 | 9495 | 2.6
Cc1ccc2nc(SCC(=O)c3ccc4c(c3)NC(=O)CO4)[nH]c2c1 | 6 | 4 | 4 | -15 | 0 | 4102 | 1.7
CCCN(CCC)CCCNS(=O)(=O)c1ccc2c(c1)oc(=O)n2C | 5 | 5 | 6 | -10 | 5 | 23740* | 4.7
COc1cccc(NC(=O)COc2ccc(C)cc2)c1 | 0 | · | · | -44 | · | 4316 | 3.4
O=S(=O)(NCc1cccnc1)c1cccs1 | 3 | 12 | -2 | -6 | 4 | 7215 | -0.1
Cc1cc(C)n(-c2ccc(C(=O)Nc3nnc(C4CC4)s3)cc2)n1 | -14 | 7 | 4 | -3 | 1 | 6809 | 0.0
CCOC(=O)c1cc2c(ccn2C)n1CC(=O)N1CCC(Cc2ccccc2)CC1 | 20 | 1 | 13 | -16 | 7 | 8774 | -3.0
